KCNQ2 enhance: potentiators of rat KCNQ2 potassium channel; O88943; CHO-K1 KCNQ2, FluxOR thallium flux fluorescence; hits give high values; B-score at 10 µM; 0.54% of 310,000 active;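 active means fluorescence ratio B-score at least 3 SD of library B-scores, with initial fluorescence B-score within 3 SD, cut at about 5.3 in these data; same plate scores as AID 2156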;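 further: B-score of peak minus minimum over baseline fluorescence ratio after K+ and Tl+ stimulus; positive B-score means potentiation of KCNQ2 with more thallium influx and brighter signal; only the inactives scoring about 0 or higher are listed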
Target sequence (O88943 whole entry, looked up): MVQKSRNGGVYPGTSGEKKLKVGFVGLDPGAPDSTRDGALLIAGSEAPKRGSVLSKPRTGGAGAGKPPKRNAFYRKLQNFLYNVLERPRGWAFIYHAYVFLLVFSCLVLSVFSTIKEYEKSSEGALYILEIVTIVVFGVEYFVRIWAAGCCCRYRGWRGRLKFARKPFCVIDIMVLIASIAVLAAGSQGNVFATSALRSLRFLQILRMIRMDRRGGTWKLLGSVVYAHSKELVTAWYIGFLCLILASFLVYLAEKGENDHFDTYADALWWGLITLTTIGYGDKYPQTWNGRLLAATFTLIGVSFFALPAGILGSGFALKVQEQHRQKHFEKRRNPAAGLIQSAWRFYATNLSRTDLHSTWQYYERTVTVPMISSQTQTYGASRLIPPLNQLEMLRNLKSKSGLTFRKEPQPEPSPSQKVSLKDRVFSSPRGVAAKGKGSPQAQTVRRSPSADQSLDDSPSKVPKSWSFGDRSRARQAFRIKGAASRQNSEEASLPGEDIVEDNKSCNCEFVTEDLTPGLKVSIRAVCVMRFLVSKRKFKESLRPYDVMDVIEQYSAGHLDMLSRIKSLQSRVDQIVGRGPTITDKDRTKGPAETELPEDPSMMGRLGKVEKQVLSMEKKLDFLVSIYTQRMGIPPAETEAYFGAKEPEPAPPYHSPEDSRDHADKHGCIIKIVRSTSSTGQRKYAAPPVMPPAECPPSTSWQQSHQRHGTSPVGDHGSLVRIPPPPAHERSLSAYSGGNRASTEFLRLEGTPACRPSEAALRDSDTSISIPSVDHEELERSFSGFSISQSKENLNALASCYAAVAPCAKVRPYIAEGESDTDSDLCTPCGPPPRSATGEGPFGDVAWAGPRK
KCNQ2 enhance baseline: recorded beside KCNQ2 enhance, whose call it bears; B-score; compound at 10 µM; measured here: initial fluorescence intensity artifact check;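 brightness before thallium and not channel activity; 0 = typical well and far values either way flag optical interference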
Numbers without * were called inactive. These rows are one share of the data; rates above refer to the full screens.

SMILES	KCNQ2 enhance	KCNQ2 enhance baseline
Cc1noc(C)c1COc1ccccc1C(=O)N1CCN(S(=O)(=O)c2ccccc2C(F)(F)F)CC1	1.3	0.69
C#CCOCCOCCOCCNc1nc(N2CCN(C(=O)C([C@@H](C)CC)n3cc(C(N)CO)nn3)CC2)nc(N2CCN(C(=O)C([C@@H](C)CC)n3cc(C(N)COC(=O)C(F)(F)F)nn3)CC2)n1 (some centres undefined)	0.24	-1.1
Cc1ccc2c(CSc3nncs3)cc(=O)oc2c1	0.61	-2.8
COCCCN1CN(S(=O)(=O)c2cccs2)c2nc3ccccc3nc21	0.59	0.8
COC(=O)c1sc(NC(=O)CSc2nnnn2C)nc1C	0.42	2.1
COC(=O)C1C(=O)C=C(N2CCOCC2)CC1(C)C (centres undefined)	0.48	-0.15
NNC(=O)C(Cc1c[nH]c2ccccc12)NC(=O)c1ccccc1 (centres undefined)	0.02	-2.1
CCOC(=O)C1CCCN(S(=O)(=O)c2cc3[nH]c(=O)c(=O)[nH]c3cc2C)C1 (centres undefined)	0.15	-1.1
CC(C)[C@H](NC(=O)c1c(F)cccc1F)C(=O)Nc1cccc(Br)c1	2	-0.82
COc1ccc(C(CC(=O)Nc2nccs2)n2cccc2)cc1 (centres undefined)	0.1	-0.82
CN(CCC#N)C(=O)CC1(Cc2ccccc2)CCOC(C)(C)C1 (centres undefined)	0.97	-1.2
Nc1nonc1C(=O)N/N=C/c1cc2c(cc1[N+](=O)[O-])OCO2	0.36	1.3
O=C(CN(Cc1ccccc1)C(=O)c1ccco1)NCc1ccc(F)cc1	0.42	-0.34
O=C(O)c1ccc(S(=O)(=O)c2ccc3c(c2)C(=O)N(c2ccc(O)cc2)C3=O)cc1	1.8	0.45
CCOC(=O)c1cc(NC(=O)N(C(C)C)C2CCCCC2)c(C)nc1C	0.06	-0.04
COc1ccc(NC(=O)C(=O)N/N=C/c2cc(C)n(-c3cccc(Cl)c3Cl)c2C)c(OC)c1	0.02	0.98
O=C(NCc1ccccc1Cl)C(=O)c1c[nH]c2ccccc12	0.98	0.16
COc1ccccc1NC(=O)Cn1cncc1-c1ccc([N+](=O)[O-])cc1	0.04	0.01
O=Cc1c(NCCN2CCOCC2)c2ccccc2[nH]c1=O	0.59	-0.02
CC(C)C1COS(=O)(=O)NC1CC(=O)SC(C)(C)C (centres undefined)	0.81	-1.8
CC1CC(NS(=O)(=O)c2cc3c4c(c2)CCN4C(=O)CC3)CC(C)(C)C1 (centres undefined)	0.26	0.22
Cc1ccc(Nc2c(F)c(F)c(F)c(F)c2C(=O)O)cc1	2	-1.4
O=C(Nc1cccc([N+](=O)[O-])c1)C1CC(=O)N(C2CCCCC2)C1 (centres undefined)	1.8	-0.73
O=S(=O)(c1ccc(-n2cnnn2)cc1)N1CCNCC1	0.16	0.69
O=C(/C=C/c1ccccc1Cl)c1ccccc(=O)c1O	8.4*	-0.28*
O=C(O)CCCNC(=O)CCCNC(=O)C(c1ccccc1)c1ccccc1	0.13	-1
CC1CCCCN1Cc1c(O)ccc2c(=O)c(-c3ccc(Br)cc3)coc12 (centres undefined)	0.05	-2.1
CC1(C)CC(=O)C(CC(=O)Nc2cc(C(F)(F)F)ccc2Cl)C(=O)C1	0.8	-1.4
Cc1ccc(/C=C2\SC(=S)N(c3cccnc3)C2=O)cc1	2.1	0
COc1cc(/C=C/C(=O)O)cc(S(=O)(=O)Nc2ccc3c(c2)OCO3)c1OC	0.09	-0.67
COC(=O)c1ccc(NC(=O)CN(c2ccc3c(c2)OCO3)S(C)(=O)=O)cc1	0.54	-0.45
NS(=O)(=O)OCCCCCc1ccccc1	0.01	0.2
COc1ccccc1/C=C/C(=O)NCCc1ccccn1	2.3	12
COc1ccccc1C(=O)N1CCc2ccccc21	0.62	0.03
O=C(Nc1cccc(Br)c1)c1ccc(Cl)c(S(=O)(=O)N2CCOCC2)c1	1.4	-0.77
O=C(Nc1ccc(N2CCCC2)c(Cl)c1)c1cccs1	0.87	0.79
Cc1cc(C)c(OCCN(C)C)c(Cl)c1	0.89	0.94
O=C(Nc1ccc(Cl)cc1F)c1ccccc1Br	0.52	0.93
O=C(Cc1noc2ccccc12)NNC(=S)Nc1ccc(Cl)cc1	0.49	6
COc1ccc(C)cc1NC(=O)c1sc2ncnc(N3CCN(c4ccccn4)CC3)c2c1C	0.96	-0.46
COc1ccc(/C(C)=N/N2CCCCC2)c(O)c1	0.45	-0.07
CC(C)(C)c1ccc2c(c1)OC(C(=O)N/N=C\c1ccccn1)CO2 (centres undefined)	0.02	-2.5
COc1ccc(CCNC(=O)CN(c2cc([N+](=O)[O-])ccc2OC)S(C)(=O)=O)cc1OC	0.04	0.32
C/C(CCC1CC(C)OC1=O)=N\NC(N)=O (centres undefined)	1.5	-0.29
CC1CN(S(=O)(=O)c2ccc(NC(=O)CCCN3C(=O)c4ccccc4C3=O)cc2)CC(C)O1 (centres undefined)	0.43	-1.1
COc1ccc(Nc2nc(N)nc(CSc3nnc(C)s3)n2)cc1	0.68	0.04
O=S1(=O)C=C(SCc2ccc(Cl)c(Cl)c2)Nc2ccccc21	0.18	-0.89
Nc1nonc1-n1nnc(C(=O)N/N=C/c2ccc(OCc3ccc(F)cc3)cc2)c1COc1ccccc1	0.61	-0.62
Cc1ccc(C(=O)Cn2nnc3ccccc32)cc1C	0.01	-0.1
O=C1/C(=C/c2cccnc2)SC(=S)N1N1CCOCC1	0.45	0.61
CC1CN(c2snnc2C=C2C(=O)OC(C)(C)OC2=O)CC(C)O1 (centres undefined)	1.8	-0.18
O=C(c1n[nH]c2c1CCC2)N1CCCC(Nc2cccc(F)c2)C1 (centres undefined)	0.38	0.16
COc1ccc(S(=O)(=O)N(C)C)cc1NC(=O)COC(=O)c1nn(C)c(=O)c2ccccc12	0.65	0.19
CC1=C(C(=O)Nc2cccnc2)C(c2cccnc2)n2nc(-c3cccs3)nc2N1 (centres undefined)	0.37	3.8
Cc1ccc(C(=O)O)cc1NC(=S)NC(=O)c1ccc([N+](=O)[O-])cc1Cl	0.06	-0.53
Cc1ccc(C2CC(c3ccccc3C)n3nc(N)nc3N2)cc1 (centres undefined)	1.5	0.06
COc1ccc(OCC(=O)Nc2ccccc2O)cc1	0.01	0.45
O=C(NCc1ccccc1)c1ccc(CS(=O)Cc2ccc(Cl)cc2)o1 (centres undefined)	3.8	-1.7
CN(C(=O)CSc1nc2[nH]ncc2c(=O)[nH]1)c1ccccc1	0.38	-0.06
COc1cccc(C(=O)/C=C/Nc2ccc(S(=O)(=O)Nc3nc(C)cc(C)n3)cc2)c1	0.42	-0.28
Further results
SMILES	KCNQ2 enhance	KCNQ2 enhance baseline
CC(C)(C)[C@@H]1C=C(C(N)=O)O[C@H](OCCCCO)C1	0.4	-0.29
Cc1ccc(NC(=O)CN(C)C(=O)CSc2nnnn2C)cc1	0.52	0.48
Cn1nccc1C(=O)Nc1ccc2c(c1)OCO2	0.21	2.1
Cc1oc2ccc(O)cc2c1C(=O)c1ccc([N+](=O)[O-])cc1	2.4	-1.6
COCCn1c(C)nnc1SCC(=O)Nc1ccccc1[N+](=O)[O-]	0.08	-1
O=C(Cc1ccccc1)N/N=C/c1ccccc1Cl	2.5	-0.33
Cc1ccc(/C=N/n2c(-c3cccs3)n[nH]c2=S)cc1	1.8	-0.48
CCc1ccc(C(=O)NC(=S)NCc2cccnc2)cc1	2.3	0.01
CCNC(=O)CSc1nc(-c2ccccc2)cs1	1	-0.02
CN(C)CCCNc1oc(-c2cccc(Cl)c2)nc1C#N	1	-1.4
CN(c1ccccc1)S(=O)(=O)c1nnc(NC(=O)COc2ccccc2)s1	0.99	0.34
CCc1noc(C)c1C(=O)N(C)CC(=O)Nc1ccc(F)c(F)c1F	0.02	2.1
Cc1ccc(-c2ccnc3[nH]n(-c4ccccc4)c(=O)c23)cc1	0.86	-0.52
COc1ccc(CCC(C)N2CCc3ccccc3C2)cc1 (centres undefined)	0.01	0.63
Cc1[nH]c(=O)[nH]c(=O)c1/C=N/NC(=O)[C@@H](NC(=O)OC(C)(C)C)C(C)C	1.4	-1.1
CC(C)C[C@H]1CN=C(Nc2ccccc2)N1CC1CCC1	0.99	0.69
COC(=O)c1c(C)[nH]c(C(=O)/C=C/c2cccc(Cl)c2)c1C	0.05	-2.3
CCc1nnc(NC(=O)c2ccc3nc(CC)c(CC)nc3c2)s1	0.56	0.03
COc1ccc(O)c(C(=O)c2cc(C#N)c(=O)n(CCN3CCOCC3)c2)c1	0.15	1.8
Cc1c(/C=N/N=C2\CCC3C4CCc5cc(O)ccc5C4CCC23C)cnn1C (centres undefined)	0.11	-0.85
Cc1ccccc1N1CC(C(=O)Nc2ccc(S(=O)(=O)N3CCCCC3)cc2)CC1=O (centres undefined)	0.53	0.05
CC1(C)CC(=O)C=C(Nc2ccc(Br)cn2)C1	0.06	1.5
COc1ccc(/C=C/c2cc[n+](C(=O)Cc3ccccc3)cc2)cc1	2.4	-0.12
COc1cccc(C(=O)NNC2=C(C(=O)C(F)(F)F)CCC2)c1	6.4*	-3.6*
CCOC(=O)C(C)n1cnc2sc(C)c(C)c2c1=O (centres undefined)	1.5	3.5
NC(=O)c1ccccc1OCCOCCOCCOc1ccccc1C(N)=O	0.75	-0.32
O=C(NNC(=O)C1CC=CCC1C(=O)O)c1cccs1 (centres undefined)	1.1	0.03
COc1ccc(-n2c(SCC(=O)Nc3ccc(C(N)=O)cc3)nc3ccccc3c2=O)cc1OC	0.55	2.2
CCOC(=O)C1(CCOC)CCN(Cc2ccc(C(=O)OC)cc2)CC1	2.6	-0.02
CCc1ccc2nc(N)sc2c1	0.37	-0.23
COP(=O)(CC(=O)c1ccccc1)CC(=O)c1ccccc1	0.45	-0.96
CCOc1ccc(/C(O)=C2/C(=O)C(=O)N(c3nc(C)c(C)s3)C2c2ccco2)cc1 (centres undefined)	0.55	2.4
CCOC(=O)C1=C(C)N(C)C(=S)NC1c1ccccc1 (centres undefined)	0.01	2.2
COc1ccc(-c2cc(C(=O)Nc3ccccc3F)on2)cc1	0.66	-0.01
CCOC(=O)c1sc(=NC(=O)c2ccc(Br)cc2)n(C)c1C	1.7	-0.17
COc1ccccc1CNC(=O)C1=CCN(S(=O)(=O)c2ccc(C)cc2)CC1	0.06	-1.5

Copied from the list:
`CCOc1ccc(/C(O)=C2/C(=O)C(=O)N(c3nc(C)c(C)s3)C2c2ccco2)cc1` (centres undefined) in KCNQ2 enhance baseline → 2.4
`COP(=O)(CC(=O)c1ccccc1)CC(=O)c1ccccc1` in KCNQ2 enhance baseline → -0.96

Going on with the list:
SMILES	KCNQ2 enhance	KCNQ2 enhance baseline
CN(C)/C=C(\C#N)C(=O)c1cccnc1Oc1ccc(F)cc1F	0.53	0.76
COc1ccc(-c2cc3nc(C)cc(C)n3n2)cc1	0.45	0.2
CNS(=O)(=O)c1ccc(NC(=O)c2ccoc2C)cc1	0.78	-0.17
CC(C)(C)c1ccc(C(=O)Nc2sc3c(c2C(=O)O)CCC3)cc1	4	-0.51
Cc1ccc(C)c(NC(=S)NNC(=O)c2cc3c(s2)CCC(C)C3)c1 (centres undefined)	11*	0.45*
CCCN(CC(=O)Nc1ccccc1OC)C(=O)c1ccc(S(=O)(=O)Nc2ccccc2)cc1	0.52	-1.4
CC(=O)c1ccc(NC(=O)CCCN2C(=O)C(c3ccccc3)Oc3cccnc32)cc1 (centres undefined)	0.03	-1.4
O=C(c1cc(-c2ccccc2)on1)N1CCN(Cc2ccc3c(c2)OCO3)CC1	1.5	-0.04
N#Cc1cc(-c2ccccc2)nc(NN)n1	0.7	-1.9
FC(F)(F)c1ccccc1NC(=S)Nc1ccccc1	0.33	0.37
c1cncc(-c2nc(-c3ccc4c(c3)OCO4)cs2)c1	0.22	-0.19
CN(C)S(=O)(=O)N1CCC(n2nccc2NC(=O)CCc2ccccc2)CC1	0.98	1.7

Whole records as entered above. Order of screens: KCNQ2 enhance, KCNQ2 enhance baseline
Listed for COc1ccccc1/C=C/C(=O)NCCc1ccccn1 : 2.3, 12
Listed for O=S1(=O)C=C(SCc2ccc(Cl)c(Cl)c2)Nc2ccccc21 : 0.18, -0.89
Listed for CC(C)[C@H](NC(=O)c1c(F)cccc1F)C(=O)Nc1cccc(Br)c1 : 2, -0.82
Listed for COc1ccc(NC(=O)C(=O)N/N=C/c2cc(C)n(-c3cccc(Cl)c3Cl)c2C)c(OC)c1 : 0.02, 0.98
Listed for O=C(NNC(=O)C1CC=CCC1C(=O)O)c1cccs1 (centres undefined) : 1.1, 0.03

An excerpt from above in order of count of non-hydrogen atoms, ascending.
SMILES	KCNQ2 enhance	KCNQ2 enhance baseline
CN(C)S(=O)(=O)N1CCC(n2nccc2NC(=O)CCc2ccccc2)CC1	0.98	1.7
CC(=O)c1ccc(NC(=O)CCCN2C(=O)C(c3ccccc3)Oc3cccnc32)cc1 (centres undefined)	0.03	-1.4
CCCN(CC(=O)Nc1ccccc1OC)C(=O)c1ccc(S(=O)(=O)Nc2ccccc2)cc1	0.52	-1.4

(further entries)
SMILES	KCNQ2 enhance	KCNQ2 enhance baseline
COC(=O)c1c(NC(=O)CSc2nc3nc(C)cc(C)n3n2)sc(C)c1C	0.38	0.03
CCOC(=O)C1=C(C)N(c2ccccc2)C(=O)C1	0.03	2.3
c1ccc2[nH]c(NCCN3CCOCC3)nc2c1	0.06	-0.78
Cc1ccccc1Oc1ccc(Oc2ccccc2C)nn1	0.85	-1.4
CN(C(=O)CS(=O)(=O)c1cn(CC(=O)N2CCOCC2)c2ccccc12)c1ccccc1	1.3	-0.49
CN(C(=O)CSc1nnc(N)s1)c1c(N)n(Cc2ccccc2)c(=O)[nH]c1=O	1.3	-1.2
COc1ccccc1C(=O)NCCC(=O)N1CCCCCCC1	0.81	-0.54
COc1ccc(C(=O)Nc2cccnc2)cc1S(=O)(=O)N1CCOCC1	0.53	2.2

Some of the entries so far, with two lines to a compound.
Values in the order: KCNQ2 enhance, KCNQ2 enhance baseline
CC1CN(c2snnc2C=C2C(=O)OC(C)(C)OC2=O)CC(C)O1 (centres undefined)
→ 1.8, -0.18
Cc1ccc(C(=O)O)cc1NC(=S)NC(=O)c1ccc([N+](=O)[O-])cc1Cl
→ 0.06, -0.53
COc1ccccc1C(=O)N1CCc2ccccc21
→ 0.62, 0.03
